VDR inh: inhibitors of human vitamin D receptor; P11473; VDR-SRC2-3 peptide fluorescence polarization, 2 h; Potency, µM, for inactives: max response, negative = inhibition, usual class: inhibitors; actives 0.93% (n = 400,000); AID 504847; active = well fitted inhibition curve with a large enough effect; inconclusive = small, poorly fitted or top-dose-only effect, or another doubt; inactive = no such curve, though single readings can be large or run the other way; note: series mostly up to about 120 µM
Target sequence (P11473 whole entry, looked up): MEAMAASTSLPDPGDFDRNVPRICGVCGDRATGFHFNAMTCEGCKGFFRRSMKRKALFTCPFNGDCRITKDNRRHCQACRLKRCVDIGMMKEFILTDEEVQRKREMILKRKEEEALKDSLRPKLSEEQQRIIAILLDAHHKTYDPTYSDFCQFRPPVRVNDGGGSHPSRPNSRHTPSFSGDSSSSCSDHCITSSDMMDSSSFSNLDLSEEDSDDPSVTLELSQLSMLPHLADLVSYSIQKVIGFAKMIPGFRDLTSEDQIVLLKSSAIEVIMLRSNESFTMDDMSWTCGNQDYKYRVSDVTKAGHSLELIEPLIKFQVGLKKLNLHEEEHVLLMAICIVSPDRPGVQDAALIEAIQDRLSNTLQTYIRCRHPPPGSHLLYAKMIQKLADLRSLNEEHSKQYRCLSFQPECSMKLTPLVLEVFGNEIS
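The screen uses fluorescence polarization to detect compounds that interfere with recruitment of the SRC2-3 coactivator peptide to VDR; plates are read after 2 h at room temperature.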
* = called active by the depositor; u = inconclusive; & = joins results of further samples; [ ] = another dose, or the depositor's remark. % is set by controls: 0 for no effect and ±100 for the full control effect; potency is the fitted concentration of half-maximal effect. Only part of the results is shown; count on the stated rates, not on these rows.

SMILES	VDR inh
CC(C)(C)c1[nH]nc2c1C(Cc1ccccc1)C(C#N)=C(N)O2 (stereo not given)	-6.4%
CC(C)CC1=NN2C(=N)/C(=C\c3coc4ccccc4c3=O)C(=O)N=C2S1	79.4µM*
COc1cc(CN2CCN(S(=O)(=O)c3ccc(NC(C)=O)cc3)CC2)cc(OC)c1OC	6.7%
O=c1cc(/C=C/c2cccs2)[nH]c2ccccc12	-10.0%
CCC1=NC(c2ccc(OC)c(OC)c2)N(O)C1(C)C (stereo not given)	-18.6%
O=C1CC(c2ccco2)Cc2nc(NCC3CCCO3)ncc21 (stereo not given)	29.1%
CC(=O)OCC(=O)[C@@]1(O)CCC2C3CC[C@H]4CC(O)CC[C@@]4(C)C3C(=O)C[C@]21C (stereo not given in full)	4.2%
O=C(NCCCn1ccnc1)c1ccccc1F	-2.8%
COc1ccc(OC)c(C2NC(=O)NC(C)=C2C(=O)Nc2ccc(F)cc2)c1 (stereo not given)	3.8%
C=CCOc1ccc(C2N3CC4(C)CN2CC(CCC)(C3)C4=O)cc1 (stereo not given)	2.8%
COc1cccc(CNC(=O)C23CN(Cc4ccccc4)CC2C(c2ccc([N+](=O)[O-])cc2)=NO3)c1 (stereo not given)	-18.6%
Cc1nn(C)cc1C1C(C#N)=C(N)N(c2cccnc2)C2=C1C(=O)CCC2 (stereo not given)	-18.3%
Cc1ccc(NC(=O)CSc2ccc(S(=O)(=O)N3CCCC3)cn2)cc1F	6.6%
COc1ccccc1S(=O)(=O)N1CCn2cccc2C1C (stereo not given)	1.4%
CN(CC(=O)c1c(N)n(C)c(=O)n(C)c1=O)c1ccccc1	3.5%
O=C(c1c(F)cccc1F)N1CCC(n2nnc3cc(C(F)(F)F)ccc32)CC1	-6.8%
Cc1c(C(=O)O)sc2nc(CSc3nnc(-c4ccc(F)cc4)n3C)[nH]c(=O)c12	-2.1%
COc1ccc(C(=O)N/N=C/c2ccc(N3CCOCC3)s2)cc1OC	-5.5%
COc1ccc(C2c3[nH]c4ccccc4c3C[C@H]3C(=O)N(C4CCN(Cc5ccccc5)CC4)CC(=O)N23)c(OC)c1 (stereo not given in full)	-9.1%
COc1cc(C(=O)NCc2ccc3c(c2)CCN3C(=O)c2ccc(Cl)cc2)cc(OC)c1OC	7.4%

The final 2 compounds of the part before come first, to join the parts:
SMILES	VDR inh
COc1ccc(C2c3[nH]c4ccccc4c3C[C@H]3C(=O)N(C4CCN(Cc5ccccc5)CC4)CC(=O)N23)c(OC)c1 (stereo not given in full)	-9.1%
COc1cc(C(=O)NCc2ccc3c(c2)CCN3C(=O)c2ccc(Cl)cc2)cc(OC)c1OC	7.4%
CC(C)N(CCNC(=O)c1ccc(CS(=O)(=O)c2c(Cl)cccc2Cl)o1)Cc1ccccc1	-11.0%
CC(C)Cc1cc(C(=O)O)n[nH]1	-6.6%
CCC(C)NC(=S)Nc1ccc(C(=O)OC)cc1 (stereo not given)	-4.0%
COc1ccc(S(=O)(=O)NCC2CCCN(Cc3ccc(OC)cc3F)C2)cc1 (stereo not given)	-0.2%
O=C(Cc1ccc(S(=O)(=O)N2CCOCC2)s1)Nc1ccc2c(c1)CCC2	-5.2%
CCOc1ccc(C(=S)NC2CCCCC2)cc1OCC	39.8µM*
CC(=O)c1cccc(NC(=O)CCS(=O)(=O)c2ccc3c(c2)n(C)c(=O)c(=O)n3C)c1	-5.4%
COc1ccc(F)cc1COc1nc(C)nc2ccccc12	-17.8%
COc1ccc(/C=N/NC(=O)c2ccn[nH]2)cc1COc1ccc(F)cc1	7.8%
Cc1nc2ccc(NC(=O)N(C)c3ccccc3)cc2s1	-8.7%
Cc1nc(CNC(=O)c2cc(COc3ccc(F)cc3Cl)on2)cs1	-2.2%
CN(C)c1ccc(/C=N/NC(=O)c2ccc3nc[nH]c3c2)cc1	4.8%
CN(C)S(=O)(=O)N1CCN(c2ccc([N+](=O)[O-])c(NC3CC3)c2)CC1	-0.6%
CCn1c(CNc2nc(-c3ccccc3)cs2)nnc1SCC(=O)NCc1ccccc1	-2.6%
CC1=C(C(=O)OCc2ccccc2)C(c2ccc(Cl)cc2)NC(=O)N1CCCC(=O)O (stereo not given)	-7.6%
COc1ccccc1CC(=O)NNC(=O)c1cccs1	-19.6%
O=C(Nc1ccccc1)N1CCN(c2ccccc2)CC1	-10.9%
CC(=O)c1cc(NC(=O)c2ccc(C)cc2)c(=O)oc1/C=C/N(C)C	-13.2%
Cc1ccc(C(=O)N2CCC3(CC2)Oc2ccc(F)cc2C(=O)C32CC(c3cccnc3)=NO2)s1 (stereo not given)	-8.9%
CCCN(CCC)C(=O)Cn1c(=O)n(CCCCCC(=O)Nc2ccccc2)c(=O)c2sccc21	-3.0%&-2.4%
CCC(C)NC(=O)c1ccccc1NC(=O)COc1ccc(OC)cc1 (stereo not given)	-10.0%
CC(C)OC(=O)CSc1nnc(-c2ccc(O)cc2)n1Cc1ccccc1	3.0%
CCOC(=O)CC1CCCCN1C(=O)c1cc(COc2cccc3cnccc23)on1 (stereo not given)	-7.4%
Cc1ccc(-n2nc(C)c(NC(=O)CCl)c2C)cc1C	3.2%
Cc1ccc2nc(-c3ccc(NC(=O)COc4ccccc4C(C)(C)C)cc3)sc2c1	-1.2%
COc1ccc(NC(=O)C2COc3ccccc3O2)cc1S(=O)(=O)N1CCOCC1 (stereo not given)	-2.3%
COc1cc(OC)cc(-c2nnc(SCC(=O)Nc3cccc(C(=O)O)c3)s2)c1	24.2%
O=C(OCC(=O)N1CCN(c2ccccc2)CC1)c1ccc(Cl)nc1	4.2%
O=C1CSc2ccc(C(=O)NCc3ccccn3)cc2N1	8.9%
CCCCOc1ccc(C2=NC(c3cccs3)=Nc3ccc(CC)cc3N2)cc1	16.4%
NS(=O)(=O)c1ccc(CCNC(=O)NC23CC4CC(CC(C4)C2)C3)cc1	-0.6%
COC(=O)c1sccc1NC(=S)Nc1cc(OC)ccc1OC	-5.0%
COc1ccc(CC(=O)Nc2cc(S(=O)(=O)Nc3ccc(OC)cc3)ccc2OC)cc1	-7.5%
Cc1sc2nc(SCc3nnc(-c4cccs4)o3)n(C3CCCC3)c(=O)c2c1C	-11.5%
Cc1ccccc1NC(=O)CN1C(=O)CSc2ccc(S(=O)(=O)N3CCCC3)cc21	-0.3%
O=C(NN1C(=O)C2C3C=CC(C3)C2C1=O)c1ccccc1 (stereo not given)	-8.1%
Cc1ccc(SCc2[nH]nc3c2C(c2cccnc2)C(C#N)=C(N)O3)cc1 (stereo not given)	9.6%
CCn1c(-c2cccn(Cc3ccccc3)c2=O)n[nH]c1=S	-6.1%
O=C1CN(S(=O)(=O)c2cc(C(F)(F)F)ccc2Cl)CCN1	-11.1%
CCc1ccc(NC(=O)CC2C(=O)N(c3cccc(C)c3)C(=O)N2C2CC2)cc1 (stereo not given)	-6.4%

Among those listed so far, these contain a furan ring, fused or not.
SMILES	VDR inh
O=C1CC(c2ccco2)Cc2nc(NCC3CCCO3)ncc21 (stereo not given)	29.1%
CC(C)N(CCNC(=O)c1ccc(CS(=O)(=O)c2c(Cl)cccc2Cl)o1)Cc1ccccc1	-11.0%

Additional results follow.
SMILES	VDR inh
CCN1C(=O)[C@H]2[C@@H](c3ccc(OC)cc3)N3C(=O)CN(CCOC)C(=O)[C@@]3(Cc3ccccc3)[C@H]2C1=O	-12.9%
O=C(COC(=O)c1ccccc1O)NNC(=O)c1ccc(Br)cc1	u
Cc1cc(C)nc(-n2nc(C)cc2NC(=O)C(C)C)n1	-15.6%
COc1ccc(NC(=O)C2CCN(C(=O)c3ccco3)CC2)c(OC)c1	12.6%
O=C(COC(=O)CCNS(=O)(=O)c1ccccc1)NC1CC1	-1.6%
O=C(CCc1ccc(O)cc1)NNC(=S)NCCc1ccccc1	-10.2%
COc1cccc(/C=C/C(=O)OCC(=O)NC(=O)NC2CCCCC2)c1	-28.8%
O=C(N=C1SC2CS(=O)(=O)CC2N1CCc1ccccc1)C1CC1 (stereo not given)	1.3%
CCOc1ccc(N2C(=O)CS/C2=C(\C(Cl)=C(Cl)Cl)[N+](=O)[O-])cc1	18.1%
CNc1ccc(C(=O)N2CCN(S(=O)(=O)c3ccc4c(c3)OCCCO4)CC2)cc1[N+](=O)[O-]	11.9%
COC(=O)c1cccc(NC(=O)c2ccc3c(c2)C(=O)N(C(C)(C)C)C3=O)c1	29.2%
Cc1ccc(C(=O)OCC(=O)Nc2ccc(Cl)cn2)cc1S(=O)(=O)N1CCOCC1	-10.4%
Cc1ccccc1-c1nc(CS(=O)(=O)CC(=O)NCCN2CCOCC2)c(C)o1	-15.4%
COc1ccccc1N1CCN(c2ccc(=O)n(CC(=O)Nc3cc(F)ccc3C)n2)CC1	9.3%
CC(C)OC(=O)CC1C(=O)NCCN1C(=S)NC(=O)c1ccc(F)cc1 (stereo not given)	2.0%
Cc1cc2c(c(=O)o1)C1(C(=O)N(C)c3ccccc31)C(C#N)=C(N)O2 (stereo not given)	-1.6%
CNC(=O)Nc1cccc(-c2cc(-c3c(Cl)cccc3Cl)no2)c1	-3.6%
Cc1cc2oc(=O)cc(Cn3ccnc3)c2cc1Cl	-20.3%
O=C(c1cc2ccccc2o1)n1nnc2ccccc21	1.6%
O=C(CN1CCN(S(=O)(=O)c2ccccc2)CC1)Nc1ccc(N2CCOCC2)cc1	-28.4%

Single values from the results shown.
CCOc1ccc(N2C(=O)CS/C2=C(\C(Cl)=C(Cl)Cl)[N+](=O)[O-])cc1 – VDR inh = 18.1%
O=C(c1cc2ccccc2o1)n1nnc2ccccc21 – VDR inh = 1.6%

3 entries from above, set out differently.
Molecule | VDR inh
O=C(COC(=O)c1ccccc1O)NNC(=O)c1ccc(Br)cc1 | u
COc1ccc(NC(=O)C2CCN(C(=O)c3ccco3)CC2)c(OC)c1 | 12.6%
O=C(c1cc2ccccc2o1)n1nnc2ccccc21 | 1.6%

The list continues.
SMILES	VDR inh
Cc1occc1C(=O)O/N=C(\N)c1ccccc1	-3.7%
O=C(NC1CCCC1)C1CCN(C(=O)NCc2ccccc2)CC1	-9.6%
CCn1ccnc1CN(C)Cc1c(C(=O)N2C[C@@H](C)O[C@@H](C)C2)nc2ccc(Cl)cn12	3.2%
Cc1cc(C)n(CC(=O)NNC(=O)CCCOc2ccc(Cl)cc2C)n1	6.2%
OCCNCCSc1nc(C2CCCCC2)n(-c2ccccc2Cl)n1	-6.3%
CN(C(=O)c1cc(Cl)c2c(c1)OCCO2)c1c(N)n(Cc2ccccc2)c(=O)[nH]c1=O	11.3%
CC(C)C[C@]1(c2ccccc2)ON(c2ccccc2C(F)(F)F)C1=O	6.7%
COCCNCc1ccc(Cl)cc1Cl	-3.0%
O=C(Nc1ccccc1Br)C1CCCN(S(=O)(=O)c2cccc3nsnc23)C1 (stereo not given)	-19.5%
CCn1c(C)cc(C)c(C#N)c1=O	7.7%
CSc1cccc(NC(=S)N(CCN(C)C)C(C)c2ccccn2)c1 (stereo not given)	-11.3%
CCN(CC(=O)Nc1ccc(NC(C)=O)cc1)C(=O)C1COc2ccccc2O1 (stereo not given)	2.5%
COc1ccccc1/C=C/C(=O)NC(=S)N1CCOCC1	-20.4%
O=c1cc(-c2ccc(O)cc2)oc2c([C@@H]3O[C@H](CO)[C@@H](O)[C@H](O)[C@H]3O)c(O)cc(O)c12	10.2%
O=c1nc(-c2ccccc2)n(-c2ccccc2)[nH]1	-16.5%
COCCNC(=O)CSc1nnc(-c2ccc(C)cc2)c(-c2ccc(C)cc2)n1	5.9%
COc1ccc(S(=O)(=O)c2c(SC)nn(Cc3ccccc3C)c2NC(C)=O)cc1	6.1%
C[C@@]12C(=O)Nc3cc(Cl)ccc3C(=O)N1[C@H]1c3cc(Br)ccc3OC[C@@H]1[C@@H]2c1ccccc1	-19.8%
Cc1cccc(N(C)S(=O)(=O)c2cc3c(cc2Cl)NC(=O)CO3)c1	-0.8%
CC(=O)NC1(c2ccccc2)CCN(C(=O)N2CCOCC2)CC1	-3.4%
CCCCNC(=O)C1CCN(C(=O)Nc2ccc(C)cc2)CC1	12.5%
Cc1ccc(C(=O)Nc2nc(=O)n(C)s2)cc1	-11.4%
O=C(COC(=O)COc1ccccc1)NCc1ccccc1	-6.0%
CCN1C(=S)SC(=O)C1=C1C=C(C)N(Cc2ccco2)C(C)=C1	8.3%
Cc1ccc(N(C)S(=O)(=O)c2cccc(C(=O)Nc3ccc(C)cn3)c2)cc1	5.7%
Cc1ccc(SCC(=O)OCC(=O)Nc2ccc3[nH]c(=O)[nH]c3c2)cc1C	18.8%
CN1CCN(C(=O)c2ccccc2[N+](=O)[O-])CC1	1.9%
COc1ccc(/C=C(/C#N)C(=O)Nc2ccc(O)cc2)cc1C(=O)O	8.1%
COc1cc(CCCN2C(N)=NC[C@H]2Cc2ccc(O)cc2)cc(OC)c1OC	2.9%
CCOc1ccc(-c2csc(NC(=O)CSCC(=O)O)n2)c2ccccc12	-5.8%
O=[N+]([O-])c1cccc(COc2ncnc3cc([N+](=O)[O-])ccc23)c1	-14.5%
COc1ccc(-c2nc(CSCC(=O)N3CCN(C4CCCCC4)CC3)c(C)o2)cc1OC	-3.5%
COC(=O)c1c(C)oc2ccc(OC(=O)c3cccs3)cc12	27.1%
COc1cccc(N(C(=O)c2csnn2)C(C(=O)NC2CCCC2)c2ccccc2)c1 (stereo not given)	-2.7%
CC(=O)NC1=CC(=C[N+](=O)[O-])C=C1O	-23.5%
Cc1ccc(-c2nnc(SCC(=O)Nc3ccc4c(c3)oc3ccccc34)n2C)c(Cl)c1	-12.0%
Cc1cc(C(=O)N(C)CC2CCCN(CCc3ccc(F)cc3)C2)c(C)o1 (stereo not given)	-15.8%
Cn1cccc1C(=O)N1CCC[C@@]2(CCN(c3ccncc3)C2)C1	8.0%
O=C(CCN1CCN(Cc2ccccc2)CC1)NNC(=O)Cc1ccc(Cl)c(Cl)c1	-7.9%
COc1ccc(OCCC(=O)Nc2cc3c(cc2C(=O)O)OCCCO3)cc1	-14.2%
COc1ccc(-c2cc3ncnc(Cl)c3s2)cc1	33.9%[activator]
CC(C)OCCCNC(=S)NNC(=O)c1ccc(Cl)c(Cl)c1	-0.7%
OC(COCc1ccc(Cl)cc1)CN1CCN(CC(O)COCc2ccc(Cl)cc2)CC1 (stereo not given)	5.0%

Compound activity from PubChem.
